VACV Venus inh: vaccinia inhibition (Venus reporter); Vaccinia virus Venus reporter expression, fluorescence; Potency, µM (top dose mostly 36.5 µM), for inactives: top-dose activity change, negative = inhibition, actives largely listed as inhibitors; actives 0.46% (n = 330,000); AID 720580; active means well fitted inhibition curve with a large enough effect; inconclusive means small, poorly fitted or top-dose-only effect; inactive means no such curve, though single readings can be large or run the other way; tested in A549 cells; also: nearly all actives have a fitted effect of over 30% in size; inactives centre near -10
VACV mCherry inh: inhibitors of vaccinia virus infection (mCherry reporter signal); Vaccinia virus mCherry reporter infection, fluorescence; about a quarter of the inactives have no number; Potency, µM (doses to about 36.5 µM), inactives show at the highest dose activity change, negative = inhibition, actives largely listed as inhibitors; actives 0.63% (n = 310,000); active = well fitted inhibition curve with a large enough effect; inconclusive = small, poorly fitted or top-dose-only effect; inactive = no such curve, though single readings can be large or run the other way; tested in A549 cells; also: nearly all actives have a fitted effect of over 35% in size; inactives centre near -10
Active calls of the source: *; i = inactive; u = inconclusive; x = no result given; [ ] = dose if it differs, or a comment. % is scaled to controls: 0 for no effect and ±100 for the full control effect; potency is read from the fitted curve at half-maximal effect.

| molecule | VACV mCherry inh | VACV Venus inh |
| --- | --- | --- |
| CN1CCN(C2CN(Cc3cn(Cc4ccc(Cl)cc4)nn3)S(=O)(=O)C2)CC1 (centres undefined) | -10% | -6% |
| CCCCNC(=S)N(C)/N=C/c1c(F)cccc1F | -15% | -8% |
| CC(C)[C@H]1CC[C@@H](C)C(C(=O)c2ccccc2)C1=O (some centres undefined) | -24% | -13% |
| CC(C)(C)CN1CCN(Cc2nc(-c3ccc(F)cc3)cs2)CC1CCO (centres undefined) | -12% | -15% |
| Cc1ccc(C)c(Cn2c(C)c(CNCc3ccc(F)cc3)c(C(=O)O)c2C)c1 | 0% | 0% |
| Cc1cccc(NC(=S)/N=C(\N)Nc2nc(C)c3ccc(C)cc3n2)c1 | u | u |
| NCC(O)CN(c1ccccc1)c1ccccc1 (centres undefined) | -10% | -7% |
| c1ccc2c(c1)oc1c(NCCCn3ccnc3)ncnc12 | x | 3% |
| CCOC(=O)Cc1c(C)nc2c(-c3ccccc3OC)c(C)nn2c1C | -17% | -7% |
| COc1ccc(CCNC(=O)CCN2C(=O)[C@@H]3Cc4ccccc4CN3C2=O)cc1 | -12% | 1% |
| COc1ccc(NC(=O)/C(=C\c2ccc(F)cc2)NC(=O)c2ccco2)cc1 | 0% | -6% |
| O=[N+]([O-])c1ccc(S(=O)(=O)Nc2cccc(-c3ccc(N4CCCC4)nn3)c2)cc1 | -17% | u |
| Cc1cccc(NC(=O)CNC(=O)CN2C(=O)NC3(CCCCC3C)C2=O)c1C (centres undefined) | i | -19% |
| Cc1cccc(OCC(=O)Nc2ccc(C(=O)O)cc2NC(=O)COc2cccc(C)c2)c1 | i | -5% |
| Cn1cc(-c2coc3c(C(=O)NCc4ccco4)cccc23)cn1 | u | u |
| CCCC(=O)NC(C)c1nc2ccccc2n1Cc1ccccc1 (centres undefined) | 2% | 4% |
| O=C(c1cn(-c2ccccc2)nc1-c1ccncc1)n1nnc2ccccc21 | i | -10% |
| CCN1c2ccccc2-c2nc3ccccc3n2C1c1ccncc1 (centres undefined) | x | -11% |
| CC1(C(=O)NS(=O)(=O)c2cccc(C#N)c2)CCN1C(=O)C1CCCCC1 (centres undefined) | 5% | 8% |
| Nc1ncnc2c1ncn2C1CCCC1 | 0% | -14% |
| NC(CSC12CC3CC(CC(C3)C1)C2)C(=O)O (centres undefined) | -18% | -11% |
| CCOC(=O)C1CCCN(C(=O)c2cn(CC(C)C)c(=O)c3cc(OC)c(OC)cc23)C1 (centres undefined) | -4% | -2% |
| COCCNC(=O)Cn1cc2c(n1)CCCCC2 | -8% | -6% |
| CC1=C/C(=C/N(C)c2ccccc2)C(=O)S1 | -15% | -2% |
| COc1ccc(S(=O)(=O)Cc2ccc(C(=O)N3CCN(c4cccc(C)c4)C(C)C3)o2)cc1 (centres undefined) | -14% | -24% |
| O=C(Nc1cccc(S(=O)(=O)NC2=NCCC2)c1)C1CCC1 | 0% | -5% |
| CCCc1ccc(OCc2ccc(C(=O)NN)o2)c(OC)c1 | -15% | -19% |
| O=C(NCc1ccccc1)c1ccc(Oc2ccc(C(=O)NCc3ccccc3)cc2)cc1 | x | -17% |
| O=C(COC(=O)/C=C/c1ccccc1Cl)NCCNC(=O)COC(=O)/C=C/c1ccccc1Cl | -14% | -4% |
| Cc1ccc(-n2nnnc2CNC(=O)c2ccccc2F)cc1C | -15% | -10% |
| CCOc1ccc(CN(C)CCc2ccccn2)cc1 | -11% | -8% |
| COc1ccc(OC)c(C2=NOC(C(=O)N3CCN(c4ccccc4)CC3)C2)c1 (centres undefined) | 12% | -12% |
| CCC(C)c1ccccc1N1CC(C(=O)N2CCN(S(=O)(=O)c3ccc(F)cc3)CC2)CC1=O (centres undefined) | -17% | u |
| COc1ccc(-c2nc(SCC(=O)Nc3ccccc3)c(-c3ccc(F)cc3)[nH]2)cc1OC | -6% | -1% |
| COc1ccc(-c2nc3cc(NC(=O)COc4ccc(F)cc4)ccc3o2)cc1 | -15% | u |
| O=S(=O)(/C=C/c1ccccc1)Nc1ccc2c(c1)OCO2 | x | -12% |
| CCCn1c(SCC(=O)NC(=O)Nc2ccc(C)cc2C)n[nH]c1=O | -6% | 0% |
| COc1cc(/C=N/N2C(=O)c3ccccc3C2=O)ccc1O | 0% | -17% |
| COCC1CCCN(Cc2ccc3c(c2)CN(C(=O)c2ccc(-n4cccn4)cc2)CCO3)C1 (centres undefined) | -12% | 4% |
| Cc1ccc(NC(=O)CCNS(=O)(=O)c2ccc3[nH]c(=O)oc3c2)cc1F | i | -17% |
| CCCCN([C@H](CO)C(C)C)S(=O)(=O)c1ccccc1Br | -6% | -21% |
| CCCS(=O)(=O)c1nc(S(=O)(=O)c2ccc(C)cc2)c(N2CCCC(C)C2)s1 (centres undefined) | -6%[7.34 µM] | -17%[7.34 µM] |
| N#Cc1ccc(C(C(=O)NC2CCCCC2)n2c(=O)c(-c3ccco3)nc3ccccc32)cc1 (centres undefined) | -5% | -9% |
| Cn1c(=O)c2c(nc(N3CCNCC3)n2Cc2ccccc2Cl)n(C)c1=O | i | 4% |
| O=S(=O)(/N=C(/Sc1ccccc1)c1ccccc1)c1ccccc1 | i | -6% |
| Cc1onc(-c2c(Cl)cccc2Cl)c1COC(=O)c1ccc(Cl)cc1[N+](=O)[O-] | -15% | 8% |
| CCC(=O)Nc1ccc2oc(-c3cccc(C)c3)nc2c1 | -20% | -14% |
| CCN(CC)C(=O)N1CCN(C(=O)N(CC)CC)CC1 | i | 1% |
| O=C(NCC1CCCO1)C1CCC(N2C(=O)c3ccccc3C2=O)CC1 (centres undefined) | -4% | -13% |
| NC(=O)c1nsc(C(=O)N(c2ccccc2)C(C(=O)NCc2ccc(F)cc2)c2ccc(O)cc2)c1N (centres undefined) | -16% | 2% |
| O=C(CN1C(=O)NC2(CCCCCCC2)C1=O)Nc1ccc(OC(F)F)cc1 | -9% | -20% |
| CC1(C)CC(C)(c2ccc(O)cc2O)N(c2cccc(Cl)c2)C(=S)N1 (centres undefined) | x | -11% |
| O=C(NCCC(=O)N1CCCCCCC1)c1ccc(Cl)cc1 | -11% | -26% |
| O=C(c1cn(C2CCCN(Cc3cccc(Oc4ccccc4)c3)C2)nn1)N1CCCC1 (centres undefined) | -4% | -17% |
| CC(=O)c1cccc(N=c2scc(-c3ccc(S(=O)(=O)N4CCOCC4)cc3)n2CCO)c1 | u | u |
| CCC(=O)Nc1ccc(Cl)c(NC(=S)NC(C)=O)c1 | -13% | -6% |
| COc1ccc(N=C2SCC(=O)N2C)cc1 | 0% | -13% |
| O=C(O)/C(=C\c1ccc(F)cc1)c1ccc(-c2ccccc2)cc1 | -15% | -15% |
| CCn1ccnc1[C@@H]1C[C@H]2CN(c3ccccc3OC)C(=O)[C@]23CCCN13 | -1% | -7% |
| O=C1/C(=C\c2ccccc2Cl)SC(=S)N1CCC(=O)N1CCCc2ccccc21 | -6% | -28% |

By substructure: the entries above containing a cyano group.
| molecule | VACV mCherry inh | VACV Venus inh |
| --- | --- | --- |
| CC1(C(=O)NS(=O)(=O)c2cccc(C#N)c2)CCN1C(=O)C1CCCCC1 (centres undefined) | 5% | 8% |
| N#Cc1ccc(C(C(=O)NC2CCCCC2)n2c(=O)c(-c3ccco3)nc3ccccc32)cc1 (centres undefined) | -5% | -9% |

Additional records follow:
| molecule | VACV mCherry inh | VACV Venus inh |
| --- | --- | --- |
| CN(CC(=O)Nc1cccc(F)c1)C(=O)CCc1nc2cc(S(=O)(=O)N3CCOCC3)ccc2n1C | -13% | -4% |
| CCOC(=O)N1CCC(NC(=O)CCc2nc(-c3ccccc3F)no2)CC1 | x | -13% |
| COc1cccc(C=NNC(=O)CCCC(=O)NN=Cc2cccc(OC)c2)c1 | -13% | -10% |
| CC(C)=CCC/C(C)=C/CNC(=O)C[C@H]1C[C@H](C(=O)N(C(C)C)C(C)C)[C@@]2(C)c3[nH]c4ccc(Cl)cc4c3CCN2C1=O | u | u |
| CN(C(=O)CSc1nnc(Nc2ccccc2F)s1)C1CCS(=O)(=O)C1 (centres undefined) | -21% | -13% |
| Cc1ccccc1C(=O)NNC(=O)C1CCCN(c2ncccn2)C1 (centres undefined) | i | -6% |
| CCCNC(=O)C1Cc2cc(S(=O)(=O)N3CCCCCC3)ccc2N1C(C)=O (centres undefined) | -3% | -1% |
| Cc1c(C=O)c2ccccc2n1CC(=O)N1CCc2ccccc2C1 | -3% | -26% |
| CC(C)CCNC(=O)C(c1ccco1)N(Cc1ccccc1)C(=O)c1snc(C(N)=O)c1N (centres undefined) | -24% | -19% |
| Cc1ccc(S(=O)(=O)c2cn(Cc3ccc(F)cc3)c3cc(F)c(F)cc3c2=O)cc1 | -7% | -7% |
| Cc1cc([N+](=O)[O-])ccc1NC(=O)CSc1nncn1-c1cccnc1 | -1% | -9% |
| CCS(=O)(=O)N1CCC(N2CCC(C)CC2)CC1 | -7% | 4% |
| Cc1[nH]c2ccccc2c1C(=O)C(C)Sc1nnc(C2CC2)o1 (centres undefined) | -20% | -13% |
| Nc1ccc2c(c1)C(=O)c1cc([N+](=O)[O-])ccc1-2 | -11% | 7% |
| Cc1ccc(C(=O)NCCCc2ccccc2)c(Cl)c1 | -9% | 3% |
| C/C(=N\NC(=O)c1ccc2ccccc2c1)c1cccnc1 | -5% | -18% |
| O=C(CCC(=O)N1CCOc2ccccc21)Nc1ccc(F)cc1F | i | 1% |
| Cc1cccc(OCCNc2cc(N3CCN(C)CC3)ccc2[N+](=O)[O-])c1 | i | -1% |
| Cc1ccc(C(=O)N2CC(C)CC(C)C2)cc1NC1=NC2CS(=O)(=O)CC2S1 (centres undefined) | -13% | 3% |
| Nc1nc(-c2cc(O)ccc2[N+](=O)[O-])cc(-c2ccccc2)c1[N+](=O)[O-] | -13% | -11% |
| Cc1ccc2c(Cl)cc(Cl)c(OCC(=O)N(C(C)C)C(C)C)c2n1 | -23% | -1% |
| O=C(NCCCn1ccnc1)c1ccc(N2CCCCC2)c([N+](=O)[O-])c1 | i | -5% |
| Cc1ccc(CN(C(=O)c2ccccc2Br)C2CCS(=O)(=O)C2)o1 (centres undefined) | -2% | -4% |
| Nn1c(SCc2ccccc2)nc2ccccc21 | 1% | -1% |
| COc1ccc(-c2c(C(=O)c3ccccc3)[nH]c(N)c2C(=O)c2ccccc2)cc1OC | u | -27% |
| COc1cc(/C=C/c2cccc[n+]2C)ccc1OCC(=O)Nc1ccccc1 | i | 0% |
| Cc1cc(C(=O)O)ccc1-n1c(C)cc(C=C2C(=O)c3ccccc3C2=O)c1C | -13% | -3% |
| CN(C)S(=O)(=O)c1ccc2c(c1)nnn2CCNC(=O)Nc1ccc(Cl)cc1 | 12% | 7% |
| O=C(C1CC1)N1CCN=C1SCc1ccc(F)cc1 | i | -6% |
| Cc1nnc(N2C(=O)c3oc4ccccc4c(=O)c3C2c2ccco2)s1 (centres undefined) | 0% | 3% |

In a second layout: entries from further up.
Under each structure – VACV mCherry inh, VACV Venus inh
CC(=O)c1cccc(N=c2scc(-c3ccc(S(=O)(=O)N4CCOCC4)cc3)n2CCO)c1
 : u, u
CCC(=O)Nc1ccc(Cl)c(NC(=S)NC(C)=O)c1
 : -13%, -6%

Next structures:
| molecule | VACV mCherry inh | VACV Venus inh |
| --- | --- | --- |
| O=C(N/N=C/c1ccccn1)c1[nH]c2ccc([N+](=O)[O-])cc2c1-c1ccccc1 | -16% | -14% |
| Cn1c(SCC(N)=O)nnc1C1CCN(S(=O)(=O)c2ccccc2C(F)(F)F)CC1 | -10% | -2% |
| COc1cccc(NC(=O)CSC2=Nc3ccccc3C3=NC(CC(=O)NCCc4ccccc4)C(=O)N23)c1 (centres undefined) | -3% | -1% |
| O=C(Cn1nnc(-c2ccccc2)n1)NNC(=O)c1cccc([N+](=O)[O-])c1 | -22% | -1% |
| Cc1nnc(NC(=O)Cn2c(=O)sc3ccccc32)s1 | -9% | 1% |
| COc1ccc(OCC(=O)Nc2cccc3ncccc23)cc1 | x | -16% |
| O=[N+]1C2=C(CCCC2)N([O-])C12CCCC2 | -9% | -13% |
| CC(=O)N1CCCc2cc(S(=O)(=O)N3CCCC(C(=O)Nc4cc(Cl)ccc4C)C3)ccc21 (centres undefined) | -15% | -16% |
| CC1=C(C)CC2(SC1)C(=O)N(c1ccccc1)N=C2N (centres undefined) | -10% | -10% |
| C/C=C/c1ccc(OCCCCn2cncn2)c(OC)c1 | -11% | -10% |
| COC(=O)c1c(NC(=O)C2COc3ccccc3O2)sc2c1CCN(C(=O)OC)C2 (centres undefined) | u | -26% |
| CCC(Sc1nnnn1C)C(=O)Nc1ccc(C(C)=O)cc1 (centres undefined) | -9% | 0% |
| CC1=C(c2ccc(C)c(C)c2)S(=O)(=O)N(Cc2ccc(C(=O)NC(C)c3ccccc3)cc2)C1=O (centres undefined) | -21% | -11% |
| Cc1cccc(C)c1NC(=O)C(c1ccc([N+](=O)[O-])cc1)N(C)C(=O)c1ccccn1 (centres undefined) | -1% | 1% |
| Cc1ccc(-c2csc(N3CCC[C@@H]3C(=O)NCCn3c(-c4ccncc4)nc4ccccc43)n2)cc1 | u | u |
| COC(=O)C(Cc1ccc(O)cc1)NC(=O)c1ccccc1OC (centres undefined) | i | -18% |
| CCCN1CCN(C(=O)Cn2cccc2C(=O)c2ccccc2)CC1 | -17% | u |
| c1ccc(CSc2nnc3ccc(-c4ccco4)nn23)nc1 | -14% | -12% |
| COc1ccc(CCNC(=O)c2c(-c3ccccc3Cl)noc2C)cc1 | 0% | -17% |
| C1NNCC12CNNC2 | -13% | -4% |

Compound profiles, as listed above. Order of screens: VACV mCherry inh	VACV Venus inh
Profile of `O=[N+]1C2=C(CCCC2)N([O-])C12CCCC2` : -9%	-13%
Profile of `COC(=O)c1c(NC(=O)C2COc3ccccc3O2)sc2c1CCN(C(=O)OC)C2` (centres undefined) : u	-26%

Source: PubChem
